High-throughput results as filed in PubChem.
NOMO-1 viab – STK33 inhibitor candidate reducing NOMO-1 cell viability; AID 2330; actives 7.5% (n = 37,000); NOMO-1 AML viability, CellTiter-Glo luminescence, 72 h; inhibition, % (test concentration not listed);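 active means most replicates above 80%; inconclusive means exactly half above 80%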;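 further: wells of about 30 µL received 25 nL stock; 0% = median of vehicle wells and 100% = reference inhibitor level; the first replicate is given; inactives centre near 10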
Numbers without * were called inactive; u = inconclusive.

A first look:
SMILES	NOMO-1 viab
CCCc1cc(=O)[nH]c(SC/C=C/c2ccccc2)n1	21
COc1ccc(NC(=O)N(C)C[C@H]2Oc3c(NS(C)(=O)=O)cccc3C(=O)N([C@@H](C)CO)C[C@@H]2C)cc1	8

This part in full, previewed entries included:
SMILES	NOMO-1 viab
CCCc1cc(=O)[nH]c(SC/C=C/c2ccccc2)n1	21
COc1ccc(NC(=O)N(C)C[C@H]2Oc3c(NS(C)(=O)=O)cccc3C(=O)N([C@@H](C)CO)C[C@@H]2C)cc1	8
C[C@@H]1CN([C@H](C)CO)C(=O)c2cccc(NC(=O)c3cnccn3)c2O[C@@H]1CN(C)CC1CC1	2
C[C@H]1CN([C@@H](C)CO)C(=O)c2cc(NC(=O)Nc3ccc(C(F)(F)F)cc3)ccc2O[C@@H]1CN(C)Cc1ccc(C(F)(F)F)cc1	114*
NC(=Nc1ccccc1)NC(=O)c1nc(Cl)c(N)nc1N	119*
O=C(CSc1nnc(-c2ccccc2)n1-c1ccccc1)Nc1cccc(Br)c1	u
Cc1cccc(-c2noc(CN(C(C)C)S(=O)(=O)c3ccc([N+](=O)[O-])cc3)n2)c1	23
COc1ccc(CN(C)C[C@@H]2Oc3ccc(NC(=O)NC(C)C)cc3C(=O)N([C@H](C)CO)C[C@@H]2C)cc1	-3
Cc1ccnc(NC(c2cccc(F)c2)c2ccc3ccc(C)nc3c2O)c1 (configuration not stated)	116*
Cc1nnsc1C(=O)NC(=O)Nc1cc(Cl)cc(Cl)c1	-16
COC(=O)c1cnc(Oc2c(Cl)cc(N)cc2Cl)cc1C(F)(F)F	-1
C[C@@H]1CN([C@H](C)CO)C(=O)c2cccc(NS(=O)(=O)c3ccc(Cl)cc3)c2O[C@@H]1CN(C)Cc1ccccc1	36
C[C@H]1CN([C@@H](C)CO)C(=O)Cc2cc(NS(C)(=O)=O)ccc2O[C@H]1CN(C)Cc1ccc(C(=O)O)cc1	2
C[C@@H]1CN([C@@H](C)CO)C(=O)c2cccc(NS(=O)(=O)c3ccc(Cl)cc3)c2O[C@H]1CN(C)Cc1ccccc1	-2
CC(C)NC(=O)N(C)C[C@H]1Oc2ccc(NC(=O)Nc3ccc(F)cc3)cc2C(=O)N([C@H](C)CO)C[C@H]1C	16
COc1ccc(NC(=O)Nc2ccc3c(c2)CC(=O)N([C@H](C)CO)C[C@@H](C)[C@@H](CN(C)Cc2ccc(C(=O)O)cc2)O3)cc1	15
C[C@H]1CN([C@@H](C)CO)C(=O)Cc2cc(NC(=O)Cc3ccccc3)ccc2O[C@H]1CN(C)Cc1ccc2c(c1)OCO2	9
CC1C2CC(C(S(=O)(=O)N3CCOCC3)C2=O)C1(C)C (configuration not stated)	12
Cc1cc([N+](=O)[O-])nn1CC(=O)Nc1ccc(F)cc1	9
C[C@@H]1CN([C@@H](C)CO)C(=O)c2cccc(N(C)C)c2O[C@@H]1CN(C)S(C)(=O)=O	-14
COC(=O)C1=C(C)N(Cc2ccccc2)C(=O)NC1c1ccccc1F (configuration not stated)	6
COc1ccc(S(=O)(=O)N(C)C[C@H]2Oc3ccc(NC(=O)NC(C)C)cc3CC(=O)N([C@H](C)CO)C[C@H]2C)cc1	-9
O=C(NCc1ccccn1)c1ccc(NC(=O)c2ccco2)cc1	26
C[C@H]1CN([C@@H](C)CO)C(=O)Cc2cc(NC(=O)Nc3ccc4c(c3)OCO4)ccc2O[C@H]1CN(C)Cc1ccc(C(F)(F)F)cc1	78
Cc1c(OCC(=O)Nc2ccc3c(c2)OCCO3)ccc2c1oc(=O)c1ccccc12	-11
C[C@@H]1CN([C@H](C)CO)C(=O)c2cc(NC(=O)CCCN(C)C)ccc2O[C@H]1CN(C)C	-3
CCCC1=C(C(=O)OCC)C(c2cc(Br)c(O)c(OC)c2)NC(=O)N1 (configuration not stated)	0
Cc1cc(OCC(=O)Nc2ncn[nH]2)c(C)cc1Br	10
Cc1ccccc1-c1nnc(SCC(=O)Nc2ccc3c(c2)OCCO3)n1C	30
C[C@@H]1CN([C@@H](C)CO)C(=O)c2cccc(NS(=O)(=O)c3cn(C)cn3)c2O[C@@H]1CN(C)Cc1ccc(C(F)(F)F)cc1	8
CCNc1nc(F)cc(=O)[nH]1	-20
Cc1noc(C)c1NC(=O)N(C)C[C@H]1Oc2ccc(NS(=O)(=O)c3ccccc3)cc2CC(=O)N([C@@H](C)CO)C[C@@H]1C	7
COc1ccc2[nH]c(C(=O)O)c(CCC(=O)O)c2c1	13
Oc1ccccc1CNc1ccc2c(c1)ncn2C1CCCCC1	4
C[C@H]1CN([C@@H](C)CO)C(=O)c2cc(NC(=O)Cc3ccccc3)ccc2O[C@H]1CN(C)Cc1ccncc1	92*
C[C@H]1CN([C@@H](C)CO)C(=O)c2cccc(NS(C)(=O)=O)c2O[C@H]1CN(C)Cc1ccncc1	-6
COc1ccc(-c2cc(=O)c3c(O)cc(O[C@@H]4O[C@H](C(=O)O)[C@@H](O)[C@H](O)[C@H]4O)cc3o2)cc1	14
C[C@@H]1CN([C@H](C)CO)C(=O)c2cc(NS(C)(=O)=O)ccc2O[C@H]1CN(C)CC1CC1	-10
COc1ccc(CCNC(=O)C(=O)Nc2ccc(C(C)(C)C)cc2)cc1OC	14
Cc1ccccc1C(=O)Nc1sc2c(c1C(=O)NCc1ccco1)CCCC2	36
C[C@@H]1CN([C@H](C)CO)C(=O)c2cccc(NC(=O)c3nc4ccccc4s3)c2O[C@@H]1CN(C)Cc1ccccc1	55
Cc1cc(NC(=O)C2CC(c3cccc(Br)c3)=NO2)n(-c2ccccc2)n1 (configuration not stated)	28
O=C(CCc1nc(-c2ccccc2F)no1)Nc1ccccc1Cl	24
O=C(Nc1ccccc1C(=O)O)c1ccc(Br)c(S(=O)(=O)N2CCOCC2)c1	-15
Cc1cc([N+](=O)[O-])nn1Cc1ccc(C(=O)Nc2ccc(CC#N)cc2)cc1	31
C[C@H]1CN([C@@H](C)CO)C(=O)Cc2cc(NS(=O)(=O)c3cccs3)ccc2O[C@H]1CN(C)C(=O)Nc1ccccc1	22
C[C@@H]1CN([C@H](C)CO)C(=O)c2cc(NC(=O)CCC(F)(F)F)ccc2O[C@H]1CN(C)C(=O)Nc1ccc(C(F)(F)F)cc1	28
C[C@@H]1CN([C@@H](C)CO)C(=O)c2cccc(NC(=O)Nc3ccc(C(F)(F)F)cc3)c2O[C@@H]1CN(C)Cc1ccncc1	27
C[C@H]1CN([C@@H](C)CO)C(=O)c2cc(NC(=O)CCCCCC(=O)Nc3ccccc3N)ccc2O[C@H]1CN(C)Cc1ccc(Cl)c(Cl)c1	111*
C[C@@H]1CN([C@@H](C)CO)C(=O)c2cccc(NC(=O)C3CC3)c2O[C@@H]1CN(C)C(=O)Nc1ccc2c(c1)OCO2	11
COc1ccc(S(=O)(=O)Nc2ccc3c(c2)C(=O)N([C@@H](C)CO)C[C@H](C)[C@H](CN(C)Cc2ccc(Cl)c(Cl)c2)O3)cc1	93*
CNC[C@H]1Oc2ccc(NS(C)(=O)=O)cc2CC(=O)N([C@@H](C)CO)C[C@@H]1C	-20
COc1ccc(NC(=O)Nc2ccc3c(c2)CC(=O)N([C@@H](C)CO)C[C@@H](C)[C@@H](CN(C)Cc2ccc(C(F)(F)F)cc2)O3)cc1	101*
Cc1cc(Br)ccc1NCc1ccc2c(c1)OCO2	43
COc1ccc(S(=O)(=O)N(C)C[C@H]2Oc3ccc(NC(=O)NC(C)C)cc3CC(=O)N([C@@H](C)CO)C[C@H]2C)cc1	3
COc1ccc(NC(=O)N(C)C[C@@H]2Oc3ccc(NS(=O)(=O)c4ccc(OC)cc4)cc3CC(=O)N([C@H](C)CO)C[C@H]2C)cc1	10
C[C@H](CO)N1C[C@H](C)[C@H](CN(C)Cc2ccc(C(=O)O)cc2)Oc2ccc(NS(=O)(=O)c3ccccc3)cc2C1=O	27
C[C@H]1CN([C@@H](C)CO)C(=O)c2cc(NC(=O)C3CCCCC3)ccc2O[C@@H]1CN(C)S(=O)(=O)c1cn(C)cn1	22
COc1cc([C@H]2OC[C@H]3[C@@H]2CO[C@H]3c2ccc(OC)c(OC)c2)ccc1O	14
C[C@H](CO)N1C[C@H](C)[C@@H](CN(C)Cc2ccc(Oc3ccccc3)cc2)Oc2c(cccc2N(C)C)C1=O	10

Single values from the list:
Entry of `COc1ccc(S(=O)(=O)N(C)C[C@H]2Oc3ccc(NC(=O)NC(C)C)cc3CC(=O)N([C@@H](C)CO)C[C@H]2C)cc1` under NOMO-1 viab: 3
Entry of `C[C@@H]1CN([C@@H](C)CO)C(=O)c2cccc(NC(=O)Nc3ccc(C(F)(F)F)cc3)c2O[C@@H]1CN(C)Cc1ccncc1` under NOMO-1 viab: 27
Entry of `C[C@H](CO)N1C[C@H](C)[C@@H](CN(C)Cc2ccc(Oc3ccccc3)cc2)Oc2c(cccc2N(C)C)C1=O` under NOMO-1 viab: 10

Some of the entries so far, as a markdown table.
| compound | NOMO-1 viab |
| --- | --- |
| COc1ccc(S(=O)(=O)N(C)C[C@H]2Oc3ccc(NC(=O)NC(C)C)cc3CC(=O)N([C@@H](C)CO)C[C@H]2C)cc1 | 3 |
| COc1ccc(NC(=O)N(C)C[C@@H]2Oc3ccc(NS(=O)(=O)c4ccc(OC)cc4)cc3CC(=O)N([C@H](C)CO)C[C@H]2C)cc1 | 10 |
| C[C@H](CO)N1C[C@H](C)[C@H](CN(C)Cc2ccc(C(=O)O)cc2)Oc2ccc(NS(=O)(=O)c3ccccc3)cc2C1=O | 27 |

Remaining list, next part:
SMILES	NOMO-1 viab
Cc1noc(C)c1S(=O)(=O)Nc1cccc2c1O[C@H](CN(C)CC1CC1)[C@H](C)CN([C@@H](C)CO)C2=O	7
O=C(CN1C(=O)c2ccccc2C1=O)NCC1COc2ccccc2O1 (configuration not stated)	20
CCOc1ccccc1OCC(=O)Nc1sc2c(c1C#N)CCC(C)C2 (configuration not stated)	17
O=C(OCCN1CCCCC1)c1c[nH]c2ccccc12	24
C[C@H](CO)N1C[C@H](C)[C@H](CN(C)Cc2ccc(C(=O)Nc3ccccc3N)cc2)Oc2ccc(NC(=O)C3CC3)cc2C1=O	u
COc1ccc(S(=O)(=O)N(C)CC(=O)Nc2ccccc2Br)cc1Cl	19
C[C@@H]1CN([C@@H](C)CO)C(=O)c2cccc(NC(=O)C3CCCCC3)c2O[C@@H]1CN(C)C(=O)Nc1ccc(F)cc1	19
C=CCN1C(=O)CN2c3ccccc3C(C)(C)C12C (configuration not stated)	-11
COc1ccc(NC(=O)N(C)C[C@H]2Oc3ccc(NC(=O)CCC(F)(F)F)cc3CC(=O)N([C@H](C)CO)C[C@H]2C)cc1	14
O=S(=O)(c1ccccc1)c1nc(-c2ccco2)oc1NCc1ccco1	-10
O=C(COc1ccccc1CO)Nc1ccccc1	23
Cc1noc(C)c1NC(=O)N(C)C[C@@H]1Oc2c(NS(=O)(=O)c3cccs3)cccc2C(=O)N([C@@H](C)CO)C[C@H]1C	-8
Cc1ccc(S(=O)(=O)Nc2cccc3c2O[C@H](CN(C)Cc2ccccc2)[C@@H](C)CN([C@H](C)CO)C3=O)cc1	22
CC(C)NC(=O)Nc1ccc2c(c1)CC(=O)N([C@H](C)CO)C[C@@H](C)[C@@H](CN(C)S(=O)(=O)c1ccccc1)O2	23
CC(C)NC(=O)N(C)C[C@@H]1Oc2ccc(NC(=O)Nc3ccccc3)cc2CC(=O)N([C@@H](C)CO)C[C@@H]1C	6
COc1ccc(-c2nc(SCC(=O)Nc3ccc(Cl)cc3)[nH]c(=O)c2C#N)cc1	-12
C[C@H](CO)N1C[C@H](C)[C@H](CN(C)Cc2ccc(-c3ccccc3)cc2)Oc2ccc(NS(=O)(=O)c3cn(C)cn3)cc2CC1=O	45
C[C@H](CO)N1C[C@H](C)[C@H](CN(C)Cc2ccccc2)Oc2c(NS(=O)(=O)c3cn(C)cn3)cccc2C1=O	-9
Cc1c(C(=O)NC(=S)NCc2cccnc2)oc2ccccc12	1
C[C@@H]1CN([C@H](C)CO)C(=O)c2cccc(NC(=O)C3CC3)c2O[C@@H]1CN(C)CC1CC1	7
C[C@@H]1CN([C@H](C)CO)C(=O)c2cc(NC(=O)Nc3ccc(C(F)(F)F)cc3)ccc2O[C@H]1CN(C)Cc1ccc(C(=O)O)cc1	3
Cc1cc(C)cc(NC(=O)CN(c2ccccc2F)S(C)(=O)=O)c1	8
CCCNc1nc(Cl)nc(NCCC)n1	18
CN(CC(=O)Nc1ccc(Cl)c(Cl)c1)S(=O)(=O)c1ccc(F)cc1	16
Cc1ccc(S(=O)(=O)N(C)C[C@@H]2Oc3c(NC(=O)c4cnccn4)cccc3C(=O)N([C@H](C)CO)C[C@@H]2C)cc1	27
COc1ccccc1NC(=O)CSc1nc(-c2ccc(Cl)cc2)cc(C(F)(F)F)n1	u
C[C@H](CO)N1C[C@H](C)[C@H](CN(C)C(=O)Nc2ccc(C(F)(F)F)cc2)Oc2ccc(NS(=O)(=O)c3cccs3)cc2CC1=O	17
C[C@H](CO)N1C[C@H](C)[C@@H](CN(C)Cc2ccc(C(=O)Nc3ccccc3N)cc2)Oc2c(cccc2N(C)C)C1=O	44
C[C@H]1CN([C@@H](C)CO)C(=O)c2cc(NC(=O)Nc3ccc4c(c3)OCO4)ccc2O[C@H]1CN(C)Cc1ccc(C(F)(F)F)cc1	12
Cc1cc(C)nc(NS(=O)(=O)c2ccc(NC(=S)NC(=O)c3ccccc3Br)cc2)n1	-10
O=C(c1ccccc1)N1CN(C2CCCCC2)Cc2c1sc1c2CCCC1	116*
Cc1noc(C)c1NC(=O)N(C)C[C@@H]1Oc2ccc(NC(=O)Nc3ccc4c(c3)OCO4)cc2C(=O)N([C@H](C)CO)C[C@H]1C	25
COc1ccc(NC(=O)Nc2cccc3c2O[C@@H](CN(C)Cc2ccc(C(=O)O)cc2)[C@@H](C)CN([C@H](C)CO)C3=O)cc1	18
Cc1ccc(-c2cc(C(=O)NCCN3CCOCC3)no2)cc1	7
CS(=O)(=O)N(CC(=O)Nc1cccc(Cl)c1)c1ccc(F)cc1	44
COc1ccc(NC(=O)CSc2nc(C)c3c(n2)CCCC3)c([N+](=O)[O-])c1	26

This is a subset (hit frequency here may not be typical).
